CSC inhib: blocks cancer stem cells. 300,000 compounds, 1.1% hits. AID 2717. cancer stem cell-like cells viability, luminescence. inhibition, % at 7.5 µM;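 active = mean at 75% or more and at least half the replicates too; inconclusive = mean and replicates disagree; tested in HMLE shEcad cells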;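 note: 0% = median of negative and 100% = median of positive control wells; the first replicate is given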
eIF4H inh: inhibitors of RNA binding by human eIF4H; Q15056; eIF4H fluorescence polarization binding assay; inhibition, % at 35 µM; 290,000 compounds, 0.94% hits; AID 2012;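 active = 50% or more with normal probe brightness, or confirmed in later tests; inconclusive = above 50% with abnormal brightness, or retests that disagree; inactive = below 50% or failed in later tests; about a fifth of its hits are not listed in these tables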;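 note: calls also rest on retests at 20 µM and on dose response follow-up; 0% = protein and probe with vehicle and 100% = probe without protein; strong numbers were not always called active; many hits fall short of the cut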
MT1-MMP act inh: inhibitors of human MT1-MMP activation; 360,000 compounds, 0.061% hits; GFP/RFP ratio change, % at 20 µM; HT1080 RFP-PRO-GFP cells, GFP/RFP ratio fluorescence, overnight; percent of plate control window, DMSO zero; P50281;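 active = GFP/RFP ratio change of at least 30% with cell ATP level not reduced by more than half and red fluorescence within 50% of control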; note: strong numbers were not always called active
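Assay system – RFP-PRO-GFP reporter HT1080 cells · Compound dosing – single dose of 20 µM compound, 1% DMSO final · Incubation – overnight compound exposure at 37 °C · Measure – GFP/RFP fluorescence ratio · Benchmarks – DMSO wells and RFP-L50D-GFP cells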
Env fusion inh: HIV envelope-mediated fusion inhibition. HeLa-JRFL Env/CEM21 cell fusion, luciferase. inhibition, % at 12.3 µM. 360,000 compounds, 1.1% hits. AID 651610;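 active = mean replicate inhibition score of at least 50 and every replicate individually at or above 50; inconclusive = only one of the two criteria met; inactive = mean below 50 and not all replicates reaching 50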;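 note: 0% = plate neutral controls and 100% = maraviroc near 300 nM; one replicate is shown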
Rce1 inh: yeast Ras-converting enzyme inhibition; yeast membranes, quenched prenylated peptide cleavage fluorescence; calls only; 290,000 compounds, 0.27% hits;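 active = fall in fluorescence gain of 50% or more versus controls, with final raw signal at or below 3038400; inconclusive = same 50% fall but final raw signal above 3038400; inactive = fall in fluorescence gain under 50%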;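 note: plate controls were neutral control wells for no effect and wells lacking membranes for full effect; tested at 10 µM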
PABP FP inh: PABP-poly(A) binding inhibition | PABP-poly(A) RNA binding, fluorescence polarization | AID 2014 | P11940 | 290,000 compounds, 1% hits | inhibition, % at 35 µM;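 active = 50% or more with normal probe brightness, or confirmed in later tests; inconclusive = above 50% with abnormal brightness, or retests that disagree; inactive = below 50% or failed in later tests; about a fifth of its hits are not listed in these tables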;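 note: calls also rest on retests at 20 µM and on dose response follow-up; controls were probe without protein and protein plus probe with vehicle; some compounds called inactive have numbers as strong as hits; many hits fall short of the cut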
Target sequence (P11940 whole entry, looked up): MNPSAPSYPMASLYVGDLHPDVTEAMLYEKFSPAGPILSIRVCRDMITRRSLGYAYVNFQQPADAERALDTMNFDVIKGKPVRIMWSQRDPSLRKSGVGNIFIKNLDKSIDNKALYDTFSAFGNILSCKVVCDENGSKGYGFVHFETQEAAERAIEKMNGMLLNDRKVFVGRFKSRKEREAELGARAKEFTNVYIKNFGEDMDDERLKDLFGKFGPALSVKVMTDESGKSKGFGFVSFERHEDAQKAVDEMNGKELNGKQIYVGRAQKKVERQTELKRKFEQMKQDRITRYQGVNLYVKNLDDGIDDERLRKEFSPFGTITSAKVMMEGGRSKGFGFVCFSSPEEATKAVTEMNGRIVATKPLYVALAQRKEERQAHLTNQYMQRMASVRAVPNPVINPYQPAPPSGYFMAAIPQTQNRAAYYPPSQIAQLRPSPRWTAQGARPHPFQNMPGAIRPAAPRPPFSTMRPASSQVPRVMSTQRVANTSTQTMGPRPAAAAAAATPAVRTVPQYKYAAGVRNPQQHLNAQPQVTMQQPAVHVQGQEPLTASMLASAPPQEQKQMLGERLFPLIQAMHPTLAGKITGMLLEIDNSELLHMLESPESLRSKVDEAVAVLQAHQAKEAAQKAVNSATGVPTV
UUG fidelity: yeast start codon fidelity modulation. S. cerevisiae UUG-firefly luciferase reporter, luminescence/redox ratio. activity score, % at 18.7 µM. 350,000 compounds, 0.13% hits;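 active = replicate mean at a twofold rise or more, about +100% in these data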;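 note: firefly luciferase made from a UUG start codon reports start codon fidelity; reporter light over untreated wells divided by growth signal over untreated wells; some hits fall short of that in this replicate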
eIF4H inh retest: also measured in eIF4H inh; calls as there; inhibition, %; compound at 20 µM; confirmation average;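 mean of two retest wells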
PABP FP inh retest: further read-out of PABP FP inh, marked with its call; inhibition, %; compound at 20 µM; confirmation repeats;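 mean of two retest wells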
MT1-MMP act inh RFP: further read-out of MT1-MMP act inh, marked with its call; RFP signal change, %; measured here: RFP expression control read;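 0 = vehicle wells; hits needed this value within 50% of zero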
Active calls of the source: *; i = inactive; ? = inconclusive; nt = no result given; & = joins results of further samples.

SMILES	CSC inhib	eIF4H inh	MT1-MMP act inh	MT1-MMP act inh RFP	Env fusion inh	Rce1 inh	PABP FP inh	UUG fidelity	others
COc1ccc(N/C(N)=N/c2nc(C)cc(C)n2)cc1	nt	nt	0	1	-12	nt	nt	-14
CN(C)C(=S)NC1CCS(=O)(=O)C1 (stereo not drawn)	nt	-9	5	6	-11	i	-9	nt
O=C(c1cccn(Cc2cccc(Cl)c2)c1=O)N1CCOCC1	7	-12	4	1	-18	i	-5	14
COc1ccc(Nc2nc(C)c(-c3ccccc3)s2)cc1	39	-12	-4	-5	nt	nt	15	nt
Cc1cc(C)cc(N(CCC#N)C(=O)COC(=O)C2CCN(c3ccc(C(F)(F)F)cn3)CC2)c1	2	nt	7	-4	-83	nt	nt	-4
COc1cc(NC(=O)COc2ccc([N+](=O)[O-])cc2)ccc1NC(=O)c1ccco1	nt	nt	0	1	4	nt	nt	-19
COc1ccc(-n2nnnc2SCC(=O)Nc2c(C)n[nH]c2C)cc1	2	nt	5	-3	nt	nt	nt	-17
CCCCN1CC(COCc2ccccc2)Oc2cccc(Oc3ccc(F)cc3)c2S1(=O)=O (stereo not drawn)	nt	nt	0	-8	30	nt	nt	-23
O=c1c2cn(Cc3ccc(F)cc3)c3ccccc3c-2nn1Cc1ccc(F)cc1	nt	2	5	2	4	i	6	-14
C=CCn1c(SCC(=O)N(CCC)C2CCS(=O)(=O)C2)nnc1-c1ccccc1OC (stereo not drawn)	-4	nt	-2	2	-4	i	nt	-21
Cn1c(SCC(=O)NC2CCCC2)nnc1-c1ccco1	-8	1	5	5	?	i	25	-11
COc1ccc(N2CCN(C(CNC(=O)C(=O)NCCC3=CCCCC3)c3ccco3)CC2)cc1 (stereo not drawn)	-5	6	-3	-4	nt	i	-12	-15
CCN(CC)C(=O)CSc1nc(N)c(-c2ccccc2)c(=O)[nH]1	-8	-1	-1	-1	-2	i	1	nt
CCCCCCSc1cc(-c2nc3cc(C)ccn3c2NC2CCCCC2)ccc1OC	43	nt	-42	-16	22	i	nt	-15
O=[N+]([O-])c1ccccc1Oc1ccc(Cl)c2cccnc12	-13	-8	0	-3	-4	i	7	nt
COc1cccc(OCC(O)CN2CCC(C)CC2)c1 (stereo not drawn)	-1	-5	0	3	nt	i	1	18
COC(=O)c1[nH]c2ccc(C)cc2c1NC(=O)CCN1CCN(Cc2ccc3c(c2)OCO3)CC1	10	-8	13	0	38	i	-1	-11
O=S(=O)(Nc1ncccn1)c1ccc(NC(=S)NCc2ccco2)cc1	-13	4	0	5	-13	i	-7	nt
Cc1cc(OCc2nc3ccccc3s2)ccc1N	15	20	-2	0	-148	i	1	nt
COc1ccc(CC(=O)NC(C)C2COc3ccccc3O2)cc1OC (stereo not drawn)	-9	-10	3	2	12	i	-10	nt
CN(C)c1cccc(Oc2nc3c(c(=O)n(C)c(=O)n3C)n2C)c1	-6	25	-2	2	11	i	18	-23
CN(C)C(=O)c1cn(CCC#N)nc1-c1ccc2ccccc2c1	12	0	0	0	-12	i	-2	-8
Cc1ccc2nc(SCC(=O)Nc3cccc(S(=O)(=O)NC4=NCCCCC4)c3)[nH]c2c1	2	-12	-3	-11	-7	i	2	nt
COc1cccc(N2CC(C(=O)Nc3ccc(F)cc3)CC2=O)c1 (stereo not drawn)	-1	3	2	-1	0	i	-2	-2
Cn1nc(-c2ccccc2F)c2cc(C(=O)Nc3ccc4c(c3)OCCO4)sc21	77*	-3	7	-2	-31	i	-3	-24
COc1ccc(-c2cc(C(=O)O)[nH]n2)cc1OC	nt	1	4	4	-68	i	-4	-15
Cc1ccc(CNC(=O)CCc2cn(C)c3ccccc23)cc1	9	-9	-1	1	12	i	3	-14
O=c1cc(C2CCCCC2)[nH]c(=O)[nH]1	nt	nt	-4	0	4	nt	nt	-8
COc1ccc(S(=O)(=O)N2CCN(CC(=O)Nc3cc(OC)cc(OC)c3)CC2)cc1	-8	-10	3	3	nt	i	-7	nt
CCc1oc2ccccc2c1C(=O)c1cc(Br)c(O)c(Br)c1	85*	-2&5	3	2	-23	i	14&5	-1&1
COc1ccc(C(=O)C2CCCN(C(=O)C3=CCCC3)C2)cc1OC (stereo not drawn)	-11	-9	1	3	-17	nt	7	nt
CCN1CCN(c2cc(C)c3cc(NC(=O)c4cccc(OC)c4)ccc3n2)CC1	12	-2	5	-1	8	i	-6	16
O=[N+]([O-])c1ccc(OCCCCN2CCCCC2)cc1	7	4	-3	3	-20	i	-8	-9
CC1=C(C(=O)Nc2ccccc2C(=O)NC2CCC(C)CC2)SCCO1 (stereo not drawn)	-4	-3	-4	-4	15	i	0	-16
CC(=O)Nc1ccc(S(=O)(=O)Oc2ccc(C(=S)N3CCCCC3)cc2)cc1	25	-5	-6	-19	?	i	-4	nt
N=c1oc2cc(O)ccc2cc1C(=O)Nc1ccc(Br)cc1	56	19	-36	-37	i	i	9	-20
CCn1c(=O)cc(SCC(=O)Nc2cccc(SC)c2)c2ccccc21	8	-2	4	4	-13	i	-4	-5
Cc1ccc(-c2cc(C(=O)Nc3cnn(C(C)C)c3)no2)cc1	-3	-6	-5	-6	-33	i	3	-23
CCOC(=O)c1sc(NC(=O)C2CC(=O)N(c3ccccc3C)C2)nc1C (stereo not drawn)	3	-3	-3	4	12	i	14	9
CCOC(=O)C1CCN(C(=O)c2cccc(NS(=O)(=O)c3ccc(F)c(F)c3)c2)CC1	6	-3	9	1	-1	i	1	-14
CSc1nsc(SC)c1C(=O)OCC(F)(F)F	-4	9	6	6	nt	i	2	-16
NC(=O)c1ccc(NC(=O)CS(=O)(=O)c2cn(CC(=O)N3CCCC3)c3ccccc23)cc1	-3	-11	-1	0	-5	i	-3	-9
CCn1c(N)c(C(=O)NCCOC)sc1=S	-3	-2	1	6	nt	i	4	-10
N#CCc1ccc(NC(=O)c2ccc(S(=O)(=O)N3CCCC3)cc2)cc1	nt	4	3	-13	10	i	5	-8
CC(C)CN(Cc1cc2ccccc2[nH]c1=O)C(=O)c1cccnc1	5	-11	6	5	13	i	-2	-4
O=S(=O)(c1ccccc1F)N1CCN(CCc2ccccc2)CC1	-9	1	5	-14	-5	i	13	-14
C=CCSc1nc2sc(C)c(C)c2c(=O)[nH]1	-2	6	6	-6	11	i	10	-23
O=C(Cc1cccs1)Nc1ccc(Cl)cc1	-3	7	-6	-5	-46	i	6	-6
Cc1ccc(/C=N\NC(=O)C2CN(S(=O)(=O)c3ccccc3)CCN2S(=O)(=O)c2ccccc2)cc1 (stereo not drawn)	-11	-6	-14	-12	nt	i	-8	-10
Cc1ccc(-n2c(-c3ccc(Cl)cc3)n[nH]c2=S)cc1	-8	1	4	0	-1	i	8	-8
O=C(O)CN=C1NC2(CCCC2)Cc2ccccc21	-18	-9	3	5	-14	i	-6	-21
COc1cccc(NS(=O)(=O)c2ccc3c(c2)C2C=CCC2C(c2ccc(C(=O)O)cc2)N3)c1 (stereo not drawn)	8	87	-5	11	20	i	1	nt	eIF4H inh retest=2;PABP FP inh retest=-1
C(/C=C/c1ccco1)=N/N1CCN(c2ccccc2)CC1	-5	-2	1	1	nt	i	-7	-23
O=C(OCCN(C1=NS(=O)(=O)c2ccccc21)c1ccccc1Cl)c1ccc(Cl)cc1	-4	6	2	-8	40	i	4	7
CC1=C(C(=O)OCc2ccccc2)C(c2ccccc2OS(=O)(=O)c2ccccc2[N+](=O)[O-])NC(=O)N1CCCC(=O)O (stereo not drawn)	11	nt	nt	nt	10	i	nt	nt
CN(C)c1ccc(CNS(=O)(=O)c2ccc3c(c2)NC(=O)CS3)cc1	7	-9	-1	1	3	i	-2	-23
CCCCCn1c(NC(=O)c2ccco2)c(S(=O)(=O)c2ccc(C)cc2)c2nc3ccccc3nc21	71	3	-16	-5	nt	i	12	-16
Cc1ccccc1S(=O)(=O)Cc1ccc(C(=O)N2CCN(c3ccc(F)cc3)CC2)o1	-11	-2	-4	-9	15	i	0	nt
CC1CCCCC12NC(=O)N(CC(=O)c1ccc3c(c1)OCO3)C2=O (stereo not drawn)	-12	nt	-5	0	0	i	nt	nt
COc1ccc(-c2csc(CCn3nc(C)cc3C)n2)cc1	-7	-4	4	-5	-6	i	2	nt

Going on with the list:
SMILES	CSC inhib	eIF4H inh	MT1-MMP act inh	MT1-MMP act inh RFP	Env fusion inh	Rce1 inh	PABP FP inh	UUG fidelity	others
O=Cc1cn(CC(O)CN2CCCCC2)c2ccccc12 (stereo not drawn)	-10	1	-1	3	14	nt	-1	nt
O=C(CNC(=O)c1cccc(F)c1)N/N=C/c1cc(Br)ccc1OCc1ccccc1	3	-8	-1	-3	-6	nt	6	nt
O=C(c1ncc[nH]1)c1ccccc1C(=O)N1CCOCC1	-9	5	-1	1	nt	i	2	-12
Nc1ccc(S(=O)(=O)Nc2nccc(/C=C/c3ccccc3F)n2)cc1	-5	-2	2	-1	27	nt	-6	nt
CCOC(=O)c1sc(NS(=O)(=O)c2ccc(NC(C)=O)cc2)nc1C	-4	-3	8	8	nt	i	3	-2
O=[N+]([O-])c1cccc(NC(=S)Nc2nc(-c3ccccc3Cl)cs2)c1	86*	14	-4	-36	97*	i	-3	-21
COc1cccc(C(=O)O[C@H]2[C@H](Cc3ccccc3)NS(=O)(=O)[C@H]3C[C@@H]4C=C[C@]23O4)c1	nt	nt	-6	-4	-8	nt	nt	-8
CN(C)/C=C1\NC(=S)N(c2ccc(Cl)cc2)C1=O	-10	-10	-6	2	-12	nt	7	-17
CC(C)Cn1c(C23CC4CC(CC(C4)C2)C3)n[nH]c1=S	14	0	2	-11	3	i	10	-18
CCCC(O)(c1ccc(Cl)cc1)C(CN1CCOCC1)c1ccc(Cl)cc1 (stereo not drawn)	94*	0	-10	-7	24	i	5	-8
COC(=O)c1cc2c(cc1Cl)SC(=NCCCN1CCOCC1)NS2(=O)=O	-14	-1	-4	-1	nt	i	22	-4
Cc1cc(C(=O)Nc2ccccc2C(=O)N2CCCCC2)ccc1[N+](=O)[O-]	4	-3	3	-1	0	i	8	1
O=C(O)CC(Cc1ccccc1)(C(=O)O)c1ccccc1 (stereo not drawn)	-14	14	-2	2	8	i	6	2
O=Cc1nccc2ccccc12	nt	nt	-3	0	-11	nt	nt	-16
COc1ccc(-c2oc3ncnc(NCCCN4CCOCC4)c3c2-c2ccc(OC)cc2)cc1	20	-8	-8	-11	?	i	4	4
CCCn1c(=S)[nH]c2cc(C(=O)N3CCN(C)CC3)ccc2c1=O	nt	nt	2	1	7	nt	nt	-1
Nc1ccc(N2CCOCC2)c2nonc12	-1	-4	3	2	-1	i	5	-19
COc1ccc(-c2nc3cc(C)c(Br)c(C)n3c2Cc2cccc(F)c2)cc1OC	nt	nt	-1	-5	-9	nt	nt	9
COCCn1c(-c2ccc(C#N)cc2)nc2c1c(=O)[nH]c(=O)n2Cc1ccccc1	-7	2	3	3	-4	i	15	-2
COc1ccc(C(=O)NCCc2nnc3ccc(SCC(=O)N4CCOCC4)nn23)cc1	-3	4	-4	2	-282	i	0	-4

Structures shown so far that have a CF3 group, in the order listed:
SMILES	CSC inhib	eIF4H inh	MT1-MMP act inh	MT1-MMP act inh RFP	Env fusion inh	Rce1 inh	PABP FP inh	UUG fidelity	others
Cc1cc(C)cc(N(CCC#N)C(=O)COC(=O)C2CCN(c3ccc(C(F)(F)F)cn3)CC2)c1	2	nt	7	-4	-83	nt	nt	-4
CSc1nsc(SC)c1C(=O)OCC(F)(F)F	-4	9	6	6	nt	i	2	-16

Source: PubChem BioAssay (several laboratories)

Only part of the results is shown (hit frequency here may not be typical).
